# HPGD inh: qHTS Assay for Inhibitors of HPGD (15-Hydroxyprostaglandin Dehydrogenase). purified HPGD, NADH fluorescence kinetic, PGE2 substrate. Potency, µM, for inactives: top-dose activity change, negative = inhibition, usual class: inhibitors. actives 4.3% (n = 150,000). AID 894, 2007; active = well fitted inhibition curve with a large enough effect (not every such curve was filed as active); inconclusive = small, poorly fitted or top-dose-only effect, or another doubt; inactive = no such curve, though single readings can be large or run the other way;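 also: top concentration of the series not given in the record; plate controls included wells without enzyme; inactives centre near -10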
# Target sequence (P15428 whole entry, looked up): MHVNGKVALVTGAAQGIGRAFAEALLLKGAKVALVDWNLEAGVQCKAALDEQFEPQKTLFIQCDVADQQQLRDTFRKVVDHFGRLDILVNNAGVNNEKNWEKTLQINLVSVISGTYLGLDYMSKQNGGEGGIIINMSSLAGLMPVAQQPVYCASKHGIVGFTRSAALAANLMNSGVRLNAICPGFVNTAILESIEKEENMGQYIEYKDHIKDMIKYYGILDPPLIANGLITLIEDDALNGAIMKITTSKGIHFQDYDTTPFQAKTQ
#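 NADH formation kinetics: reaction with 30 uM PGE2 and 1 mM NAD+ (final), 20 nM enzyme, Tris-HCl pH 8 with Tween 20, after 15 min compound preincubation at room temperature. Fluorescence change, last versus first of five reads.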
# * marks the source's active call; other numbers are inactive results; ? = inconclusive; & = joins results of further samples. % is scaled to controls: 0 for no effect and ±100 for the full control effect; potency is read from the fitted curve at half-maximal effect. An excerpt. The share of hits here may be higher or lower than overall.
Structure	HPGD inh
Cc1cc(N2CCOCC2)nc(SCC(=O)c2ccc(Cl)cc2)n1	-15%
O=C1c2ccccc2C(=Nc2ccccc2)C1c1cccc(Br)c1 (stereo not given)	-1%
CCC1=C2CC[C@H]3C(=O)NC(=O)[C@H]3[C@H]2[C@@]2(Cc3ccccc3)C(=NCc3ccccc3)OC(=O)N2C1=O	-9%
CN(NS(=O)(=O)c1ccccc1)c1nc2ccccc2nc1C(F)(F)F	-7%
CCOC(=O)c1ccccc1NC(=O)c1cccc2c1C(=O)N(C1CCN(C(=O)OCC)CC1)C2	-10%
C=CCNC(=O)COC(=O)c1ccccc1C(=O)N(C)C1CCCCC1	-13%
NC(=NCCc1ccccc1)NS(=O)(=O)c1ccc(F)cc1	1%
O=C(Nc1ccccc1Br)C1CCC(=O)N1Cc1ccccc1Cl (stereo not given)	0%
O=C(OCC(=O)N1CCN(C(=O)COC(=O)c2ccncc2)CC1)c1ccncc1	-12%
Cc1cc(C)n(-c2ccc(C(=O)OCC(=O)NCc3ccc(Cl)cc3)cc2)n1	?
Cc1csc(SCC(=O)NCc2cccs2)n1	-19%
Cc1cc(C)c2c(n1)sc1c(=O)n(Cc3ccccc3Cl)nnc12	-18%
COc1ccc(-c2ccc(/C=N/NC(=O)c3cccnc3)o2)c([N+](=O)[O-])c1	-20%
COC(=O)c1cc(-c2ccccc2)n(CC(=O)O)c1C	?
CC(C)N(CC#CCC1(O)c2ccccc2-c2ccccc21)CCO	-9%
COC(=O)c1ccc2c(=O)[nH]c(CN3c4ccccc4CC3C)nc2c1 (stereo not given)	-13%
CCN1C(c2ccccc2)C(C)C(=O)C(C)C1c1ccccc1 (stereo not given)	-9%
c1ccc(C(c2ccccc2)N2CCC3(CCNCC3)CC2)cc1	-9%
CCOC(=O)c1c(NC(=O)C2C3CCC(O3)C2C(=O)O)sc(C)c1-c1ccc(F)cc1 (stereo not given)	-18%
Oc1c(C=NCc2ccc(F)cc2)[nH]c2ccc(Br)c(Cl)c12	?
CN(C)c1ccc(NC(=O)COC(=O)c2cc(Cl)ccc2[N+](=O)[O-])cc1	-6%
S=C1Nc2ccccc2Sc2ccc(Cl)cc21	-19%
Cn1cnnc1SC(C(=O)c1ccccc1)c1ccccc1 (stereo not given)	-25%
Cc1nc2c(c(=O)n1CCC1=CCCCC1)c1nc3ccccc3nc1n2/N=C/c1ccccc1	?
CCOC(=O)Cc1csc(SCC(=O)N2CCN(c3ccc(OC)cc3)CC2)n1	-16%
Cc1ccc(NC(=S)NC(=O)c2ccc(-c3ccc(Cl)cc3)o2)c(O)c1	-15%
CC1CCN(c2nc3c(c(=O)n(C)c(=O)n3C)n2CCSc2nc3ccccc3o2)CC1	-1%
Cc1n(CC(O)COCc2ccccc2)c2ccccc2[n+]1C (stereo not given)	-6%
NC(=O)CN1CCN(C(=O)NC2CCCCC2)CC1	-7%
C=CCCCCCC	-2%

Structure	HPGD inh
CC12Cc3ccc4ccccc4c3C=C1C[N+](C)(C)C2 (stereo not given)	-30%
O=C(Nc1nc2ccc(Cl)cc2s1)[C@@H]1CCCN1C(=O)c1cccs1	?
CC(C)C(NS(=O)(=O)c1c(Cl)cccc1Cl)C(=O)OCC(=O)c1c[nH]c2ccccc12 (stereo not given)	-11%
NS(=O)(=O)c1ccc(NCc2cc(Cl)ccc2OCc2ccccc2F)cc1	-5%
C[C@@]12CC[C@@H]3[C@H](CCC4=CC(=O)CC[C@]43C)[C@@H]1CC[C@@H]2C(=O)Cn1cnc2c(=S)nc[nH]c21	0%
N#Cc1cc(C(=O)c2cc(F)ccc2O)cn(-c2nccs2)c1=O	11µM*
CCOC(=O)N1CCN(C(=O)CSc2ccc(Cl)cc2)CC1	-15%
CCn1c(SCC(=O)c2c(N)n(C)c(=O)n(C)c2=O)nc2sc(C)c(C)c2c1=O	-9%
O=C(NCCc1c[nH]c2ccccc12)C(=O)NCC(c1cccnc1)N1CCN(c2ccccc2)CC1 (stereo not given)	-2%
CO/N=C/c1ccc(Sc2ccccc2)c([N+](=O)[O-])c1	-8%
CCOc1ccc(NC(=O)c2ccccc2NS(=O)(=O)c2ccc(F)cc2)c([N+](=O)[O-])c1	-18%
Cc1nn(Cc2ccc(F)cc2)c(C)c1NC(=O)c1cccnc1Cl	-10%
CCCCn1c(CCC)nc([N+](=O)[O-])c1Sc1ccc(Cl)cn1	-15%
Cc1ccc(Sc2c(O)c3ccccc3n(C)c2=O)cc1	-9%
O=C(NCCCN1CCOCC1)C1(c2ccccc2)CCOCC1	-15%
CCC(Oc1ccccc1)C(=O)N1CCN(C(=O)C(CC)Oc2ccccc2)CC1 (stereo not given)	-4%
O=C1NC(c2ccccn2)Nc2sc3c(c21)CCC3 (stereo not given)	-12%
CCCc1nc2sc3c(=O)n(N)cnc3c2c2c1COC(C)(C)C2	-13%
CCc1nnc(NC(=O)c2cccc(NC(=O)C(C)C)c2)s1	-14%
CCOc1ccccc1CNS(=O)(=O)c1ccc2c(c1)oc(=O)n2C	-11%
CCOc1ccc(-c2cc(C(=O)N/N=C/c3ccc(O)c(OC)c3)[nH]n2)cc1	-14%
CCCC(=O)Nc1ccc(-c2nc3cc(C)c(C)cc3o2)c(O)c1	?
Cc1cc(=O)n2c3c(cccc13)CCC2	?
CC(CC(=O)Nc1ccc(F)c([N+](=O)[O-])c1)c1ccccc1 (stereo not given)	-3%
Cc1cc(NC(=O)CCCC(=O)Nc2ccc(F)cc2)no1	-9%
COc1ccccc1N1CCN(CCn2c(=O)[nH]c3c([nH]c4ccccc43)c2=O)CC1	-14%
COC(=O)c1c(NC(=O)c2ccco2)sc(C(=O)Nc2ccc(F)cc2)c1C	?
O=C(CC(c1ccccc1)c1ccco1)N1CCOCC1 (stereo not given)	18µM*
CCOc1ccccc1NS(=O)(=O)c1ccc2c(c1)n(C)c(=O)c(=O)n2C	-10%
CC(NC(=O)c1ccc2c(c1)OCO2)C1CCCO1 (stereo not given)	-25%

Structure,HPGD inh
Cc1cc(C)c2c3c(sc2n1)C(c1cccc(F)c1)C(C#N)=C(N)O3 (stereo not given),-7%
Cc1ccc2cccc(NC(=S)NC(=O)c3c(Br)cnn3C)c2n1,-6%
CCOC(=O)c1[nH]c2ccccc2c1NC(=O)c1ccco1,-2%
CC(C)CC(C(=O)NC(=O)NCc1ccccc1)N1C(=O)c2ccccc2C1=O (stereo not given),-1%
CCCCC(=O)Nc1c(O)c2ccccc2[nH]c1=O,?
COC(=O)CC/C(O)=C1/C(=N)CC(C)(C)CC1=O,-12%
O=C(Nc1cc2c(cc1Cl)OCCCO2)c1ccccc1,-15%
COc1ccc(N2CCN(c3ncnc4nc[nH]c34)CC2)cc1,-9%
CCOc1ccc(NC(=O)CSc2nnc(-c3ccco3)n2C)cc1,-18%
CCOCCCNCc1c(Cl)cccc1Cl,-11%
CC(C)Cc1cc(C(=O)N2CCN(C(c3ccccc3)c3ccccc3)CC2)no1,-10%
COc1ccc(-n2c(C)nc3cc(C(=O)NCc4ccco4)ccc32)cc1,8.9µM*
CCN(C1CCCCC1)S(=O)(=O)c1cn(C)c(=O)n(C)c1=O,-2%
Cc1c(C(=O)NNC(=S)Nc2cccc(Cl)c2)nnn1-c1ccccc1,-29%
COc1ccc(CN2CN(c3ccc(Cl)cc3)C(=O)N(n3cnnc3)C2)cc1,-4%

# Of the compounds above, five contain two or more sulfur atoms:
Structure,HPGD inh
Cc1csc(SCC(=O)NCc2cccs2)n1,-19%
S=C1Nc2ccccc2Sc2ccc(Cl)cc21,-19%
CCOC(=O)Cc1csc(SCC(=O)N2CCN(c3ccc(OC)cc3)CC2)n1,-16%
O=C(Nc1nc2ccc(Cl)cc2s1)[C@@H]1CCCN1C(=O)c1cccs1,?
CCn1c(SCC(=O)c2c(N)n(C)c(=O)n(C)c2=O)nc2sc(C)c(C)c2c1=O,-9%

# Given with each value named: entries from further up.
CCOC(=O)c1[nH]c2ccccc2c1NC(=O)c1ccco1
  HPGD inh: -2%
COC(=O)CC/C(O)=C1/C(=N)CC(C)(C)CC1=O
  HPGD inh: -12%
CCN(C1CCCCC1)S(=O)(=O)c1cn(C)c(=O)n(C)c1=O
  HPGD inh: -2%
CCCCC(=O)Nc1c(O)c2ccccc2[nH]c1=O
  HPGD inh: ?

# (cont.)
Structure,HPGD inh
Cc1cc(C(=O)NNC(=S)NC(C)c2ccccc2)c2ccccc2n1 (stereo not given),-4%
CCc1cc2c(SCC(=O)C(C#N)=C3N(C)c4ccccc4N3C)ncnc2s1,-13%
O=C(CCC(=O)OCC(=O)c1ccc(Br)cc1)NC1CCCCC1,-20%
Cc1cccc(CNc2cc(-c3cccc(NS(C)(=O)=O)c3)ncn2)c1,?
Cc1nc(-c2ccccc2)c(-c2ccccc2)[nH]1,?
Cc1cc(-c2[nH]nc3c2C(c2ccc(Cl)cc2)C(C#N)=C(N)O3)c(C)s1 (stereo not given),-7%
Nc1nc(NC(=O)c2cccc(S(=O)(=O)N3CCCCCC3)c2)nc(-c2ccccc2)n1,-6%
COC(=O)C(NC(C)=O)(Nc1ccc(Br)cn1)C(F)(F)F (stereo not given),-5%
COc1ccc(C(=O)NC2c3ccccc3-c3ccccc32)cc1,-14%
Cc1cc(C)n2nc(-c3ccc(F)cc3)nc2n1,-5%
O=C1CC(c2cccc([N+](=O)[O-])c2)c2c(ccc3ccccc23)N1 (stereo not given),-2%
CCN(CC)C(=O)N1CCN(C)CC1,-7%&2%
Cc1ccc(OCc2nc(-c3ccc(Cl)cc3)n[nH]2)cc1,-13%
CCOC(=O)/C(C#N)=C/Nc1ccccc1OC,-8%
COc1cc2nncc(SCc3ccc(Cl)c(Cl)c3)c2cc1OC,-5%

Structure,HPGD inh
CCN1CNC(=S)N(C(C)c2ccccc2)C1 (stereo not given),2%
Cc1ccc(C(=O)N2CCN(c3cccc(Cl)c3)CC2)cc1C,-17%
COc1ccc(N=C2SC(CC(=O)Nc3ccccc3F)C(=O)N2Cc2ccco2)cc1 (stereo not given),-8%
O=C1C2=C(SCCS2)C(=O)N1CCCO,-10%
CCCOc1c(OC)cccc1C1CC(=O)Nc2cc3c(cc21)OCO3 (stereo not given),-12%
COc1ccc(-c2nc3c(c4nnc(SC(C)C(=O)Nc5ccc(C)cc5)n24)COC(C)(C)C3)cc1 (stereo not given),?
Cc1[nH]n(-c2ccccc2)c(=O)c1N=Nc1nccs1,-8%
COC(=O)C1=C(C(=O)OC)[C@@H]2N(Cc3ccccc3)c3ccccc3[C@@]23C[C@@H](C(=O)OC)N(C(=O)c2ccco2)C3=N1,-10%
COc1ccc(NC(=O)CNS(=O)(=O)c2cccs2)cc1,0%
Cc1cccc(-n2ccnc2SCC(=O)Nc2cc(C)on2)c1,-9%
Cc1ccc(C(=O)COC(=O)c2cccc(NC(=O)c3ccc([N+](=O)[O-])cc3[N+](=O)[O-])c2)cc1,-20%
COc1ccc(NC(=O)COC(=O)CC23CC4CC(CC(C4)C2)C3)c([N+](=O)[O-])c1,-16%
N#CC1=C(N)NC(SCC(=O)Nc2ccccc2)=C(C#N)C12CCCCC2,-26%
CCn1c(=O)c(C(=O)NCc2ccccn2)c(O)c2ccccc21,-6%
CC1=C(OC(=O)c2ccccc2)C(C)(C)C(c2ccccc2)OC1=O (stereo not given),-14%

Structure,HPGD inh
Cc1nc(Cl)c(C(=O)NC(=O)NCc2ccccc2)c(C)c1Cl,1%
CCOc1ccc(CC(=O)Nc2c(C(N)=O)oc3ccccc23)cc1OCC,4%
COc1cccc(-c2cc(C(=O)NCc3ccco3)no2)c1,?
CC(Sc1nc(-c2ccc(F)cc2)cs1)C(=O)N1c2ccccc2CC1C (stereo not given),-17%
Cc1ccc(OC(=O)c2cccc(C(=O)Oc3ccc(C)cn3)n2)nc1,-29%
O=C(Nc1ccc(F)cc1)N1CCN2C(=O)c3ccccc3C12c1ccccc1 (stereo not given),-5%
COc1ccc2[nH]c(=O)c(CN(Cc3cccs3)S(=O)(=O)c3c(C)ccc4nsnc34)cc2c1,0%
O=S(=O)(c1cccs1)N1CN(CC2CCCO2)c2nc3ccccc3nc21 (stereo not given),-8%
COc1ccc(-n2c(COc3ccccc3)nnc2SCc2ccc(C#N)cc2)cc1,-17%
Cc1nnc(C)n1/N=C/c1ccccn1,-3%
CCOCCn1cnc2sc(C(=O)Nc3nc(C)c(C(=O)OCC)s3)c(C)c2c1=O,-11%
O=C(O)c1cc(-c2ccc(-c3ccccc3)cc2)nc2cc3ccccc3cc12,-18%
COc1cc(C(=O)N2CCC(n3c(C)nc4cc(F)ccc43)CC2)cc(OC)c1OC,-12%
CC(C)COc1ccc(-c2nn(-c3ccccc3)cc2C(=O)Nc2nccs2)cc1,?
COc1cc2c(cc1OC)CN(C(=O)CSc1nnc3scc(-c4ccccc4)n13)CC2,-25%

Structure,HPGD inh
O=C(Nc1cccc(C(F)(F)F)c1)c1cccnc1N1CCCC1,-3%
Cc1ccccc1N1C(=O)N(c2cccc(C(F)(F)F)c2)C2CS(=O)(=O)CC21 (stereo not given),-9%
Cc1ccc(C=Nc2ccc(N(C)C)cc2)o1,-9%
Cc1oc(-c2ccccc2F)nc1CS(=O)(=O)CC(=O)N1CCOCC1,-6%
COc1cccc(-c2nnc(NC(=O)c3ccc(S(=O)(=O)N4CCOCC4)cc3)o2)c1,-1%

# Single values from the list.
# Under HPGD inh, Cc1oc(-c2ccccc2F)nc1CS(=O)(=O)CC(=O)N1CCOCC1 is entered as -6%
# Under HPGD inh, Cc1ccc(C=Nc2ccc(N(C)C)cc2)o1 is entered as -9%
# Under HPGD inh, COc1cccc(-c2nnc(NC(=O)c3ccc(S(=O)(=O)N4CCOCC4)cc3)o2)c1 is entered as -1%

# Compound activity: PubChem BioAssay, National Center for Advancing Translational Sciences (NCATS)
